Screening results (PubChem BioAssay)
VCAM-1 imaging – inhibitors of TNFa-induced VCAM-1 surface display, imaging, high-content imaging, pooled HUVEC, TNFa stimulus (AID 456). HUVEC TNFa-induced VCAM-1 surface expression, immunofluorescence imaging; numbers were filed only for top-ranked candidate wells. inhibition, % at 5 µM, or IC50 in µM where a hit was titrated. hit rate 0.2% among 10,000;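 active = top tenth filtered wells with inhibition above zero that passed visual or statistical confirmation; inactive = the rest, including hits rejected on review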;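 also: 0% = stimulated vehicle wells and 100% = unstimulated cells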
VCAM-1 augmentation – enhancers of VCAM-1 display on endothelial cells, imaging, high-content imaging, pooled HUVEC, TNFa stimulus (AID 457); Pooled HUVEC, TNFa-induced VCAM-1 immunofluorescence imaging; hits of this screen are not shown here; calls only; hit rate 0.2% among 10,000;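 active = a top-ranked rise in VCAM-1 staining upheld on image or statistical review; inactive = the rest, including candidates rejected on review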;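 also: compounds tested at 5 µM in the well; cells exposed to compound for 24 hours before fixing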
VCAM-1 inhibition – inhibitors of TNFa-induced VCAM-1 surface display, cell-based, plate reader, pooled HUVEC, TNFa stimulus (AID 454). HUVEC TNFa-induced VCAM-1 surface immunofluorescence, plate reader; numbers were filed only for top-ranked candidate wells. inhibition, % at 5 µM. hit rate 0.2% among 10,000;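 active = compound among top-ranked inhibitors of TNF-induced VCAM-1 adhesion protein staining, with the hit upheld by image or statistical review; inactive = the rest, including hits rejected on review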;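 also: 0% = TNFa with vehicle and 100% = cells without TNFa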
FPRL1 ligand – human FPRL1 ligands by binding competition, primary screen, cell-based, FPR counter-screen, flow cytometry; N-formyl peptide receptor 2 (Homo sapiens), P25090; FPRL1-expressing cells, fluorescent ligand binding inhibition; inhibition, %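 (tested at 6.7 µM)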; hit rate 0.3% among 24,000; AID 441, 2006;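 also: 0% = buffer alone and 100% = receptor blocker peptide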
Target sequence (P25090 whole entry, looked up): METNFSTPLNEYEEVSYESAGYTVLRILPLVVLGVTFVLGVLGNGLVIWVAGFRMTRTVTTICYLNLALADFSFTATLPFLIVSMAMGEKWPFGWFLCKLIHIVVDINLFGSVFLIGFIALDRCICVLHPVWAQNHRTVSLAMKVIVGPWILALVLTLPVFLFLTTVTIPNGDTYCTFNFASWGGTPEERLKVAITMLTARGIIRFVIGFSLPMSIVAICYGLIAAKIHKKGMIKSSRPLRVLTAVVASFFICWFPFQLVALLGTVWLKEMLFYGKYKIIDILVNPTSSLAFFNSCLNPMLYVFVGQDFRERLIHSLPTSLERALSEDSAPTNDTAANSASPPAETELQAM
FPR binder – human FPR ligands by binding competition, primary screen, cell-based, FPRL1 counter-screen, flow cytometry | inhibition, %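 (tested at 6.7 µM)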 | fMet-Leu-Phe receptor (Homo sapiens), P21462 | hit rate 0.74% among 24,000 | FPR-expressing cells, fluorescent ligand binding;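 also: 0% = buffer wells and 100% = receptor blocker peptide wells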
Target sequence (P21462 whole entry, looked up): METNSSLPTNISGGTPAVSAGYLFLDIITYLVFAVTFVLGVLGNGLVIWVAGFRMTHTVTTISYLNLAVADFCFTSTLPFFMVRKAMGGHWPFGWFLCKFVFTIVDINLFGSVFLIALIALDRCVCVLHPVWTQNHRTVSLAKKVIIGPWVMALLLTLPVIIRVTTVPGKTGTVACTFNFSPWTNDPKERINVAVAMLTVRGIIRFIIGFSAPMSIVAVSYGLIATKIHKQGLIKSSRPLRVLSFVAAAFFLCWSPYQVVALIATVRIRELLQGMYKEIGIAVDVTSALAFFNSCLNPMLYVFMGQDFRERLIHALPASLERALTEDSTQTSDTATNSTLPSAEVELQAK
The depositor's hits bear a star; i = inactive; x = no result given.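 The calls were made as follows, unless noted: active = mean above 30%; inconclusive = self-fluorescent; inactive = the rest.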

SMILES | VCAM-1 imaging | VCAM-1 augmentation | VCAM-1 inhibition | FPRL1 ligand | FPR binder
O=C(CN1CCN(Cc2ccccc2Cl)C1=O)NC1CCCCCC1 | x | x | x | -1.9 | -1.1
COc1ccc(N2CCN(C(=O)COc3ccc4ccccc4c3)CC2)cc1 | i | i | i | 7.7 | -1.7
CC(=O)OCC(=O)[C@H]1CC[C@H]2[C@@H]3CC=C4C[C@@H](O)CC[C@]4(C)[C@H]3CC[C@]12C | i | i | i | -2.8 | -3.2
Cc1nc2ccccc2cc1O | i | i | i | -5.9 | -9.5
CCOc1ccccc1CNC(=O)C1CCCN(c2nc3ccccc3o2)C1 (stereo unspecified) | x | x | x | -6.3 | -6.0
COc1cccc(C2=NOC(C(=O)NC3CCCCC3)C2)c1 (stereo unspecified) | x | x | x | -2.5 | -2.5
COc1ccc(N2CCN(C(CNC(=O)c3ccc4c(c3)OCO4)c3cccnc3)CC2)cc1 (stereo unspecified) | x | x | x | -0.3 | 0.9
NC(=O)CCCC1=NS(=O)(=O)c2ccccc2N1 | x | x | x | -3.9 | -7.6
Cc1ccc(CNC(=O)C2CCN(S(=O)(=O)N3CCOCC3)CC2)cc1 | x | x | x | -17.0 | -3.4
COc1ccc(-c2noc(CCC(=O)Nc3nc4ccccc4s3)n2)cc1 | i | i | i | 10.8 | -6.1
CCOCCCNC(=O)C(NC(=O)c1ccc(=O)[nH]c1)c1ccccc1 (stereo unspecified) | x | x | x | -9.1 | -6.5
N#Cc1nc(-c2ccccc2F)oc1NCCN1CCOCC1 | x | x | x | 3.9 | 12.6
CCc1ccc(NC(=O)CCNS(=O)(=O)c2cccc3nonc23)cc1 | x | x | x | 2.1 | 8.3
Cc1ccc2nc(NC(=O)CSc3nc4c(c(=O)n3C)SC(C)C4)sc2c1 (stereo unspecified) | x | x | x | -7.3 | 0.2
O=C1Nc2ccccc2OC1CC(=O)N1CCOCC1 (stereo unspecified) | x | x | x | 5.9 | -0.2
Cc1ccc(-c2c(C(=O)N3CCOCC3)oc(=O)c3ccccc23)cc1 | x | x | x | 5.4 | 1.3
CCOc1ccc(NCc2nnc(SCC(=O)Nc3cc(C)on3)n2-c2ccccc2OC)cc1 | i | i | i | -2.2 | 8.9
CCOC(=O)N1CCC(NC(=O)c2cc3c(C)nc4ccccc4c3o2)CC1 | x | x | x | 27.5 | 40.4*
Cc1ccc(C)c(NC(=O)CCn2nc(C)cc2C)c1 | x | x | x | -3.3 | 3.6
CCOc1ccccc1NC(=O)C1Cc2ccccc2CN1S(C)(=O)=O (stereo unspecified) | x | x | x | 13.6 | 3.8
Cc1ccc(S(=O)(=O)N2C3C=CC(C3)C2C(=O)O)cc1 (stereo unspecified) | x | x | x | 0.9 | -3.8
O=C(Cn1cc2c(n1)CCCCC2)N1CCc2ccccc21 | i | i | i | -3.6 | -5.7
CCn1c(SCc2nc(-c3ccccc3)no2)nc2ccccc21 | x | x | x | -5.8 | -2.7
Cc1cccc(N2CCN(S(=O)(=O)c3cnc[nH]3)CC2)c1C | x | x | x | -10.8 | 0.1
C=CCn1c(Cc2cccs2)nnc1SCC(=O)Nc1ccc(OC)c(OC)c1 | i | i | i | -2.7 | -3.8
COc1ccc(N2CCN(C(=O)CSc3ccccc3)CC2)cc1 | i | i | i | 4.5 | -15.3
CCc1nnc(NC(=O)CSc2nc3ccccc3s2)s1 | i | i | i | -0.6 | -8.7
COCCN1C(=O)C(=O)/C(=C(/O)c2cccc(OC)c2)C1c1ccc(C)o1 (stereo unspecified) | x | x | x | -3.2 | -0.5
O=C(NCc1ccc2c(c1)OCO2)c1ccc(NC(=O)C2CCCO2)cc1 (stereo unspecified) | x | x | x | -0.5 | -0.4
CN(CCCNC(=O)C1CCN(S(=O)(=O)c2cccc3nsnc23)CC1)Cc1ccccc1 | x | x | x | 3.8 | -3.0
Cc1ccc(S(=O)(=O)N2CCCC2C(=O)n2nc(C)cc2C)cc1 (stereo unspecified) | i | i | i | -0.1 | 3.3
COc1ccc(Cl)cc1C(=O)NCCc1ccc(S(=O)(=O)NC(=O)NC2CCCCC2)cc1 | i | i | i | 4.9 | 4.7
Brc1ccc(-c2noc(COc3ccc4c(c3)CCC4)n2)o1 | x | x | x | 6.8 | 1.5
N#Cc1cccc(NC(=O)NCCc2c[nH]c3ccccc23)c1 | x | x | x | -3.8 | -6.4
COc1ccc(-n2c(Cc3cccn3C)nnc2SCC(=O)Nc2cccc(F)c2)cc1 | x | x | x | 1.4 | 3.8
O=C(CCN1C(=O)COc2ccccc21)NCc1ccco1 | x | x | x | 2.7 | -5.3
O=S(=O)(NCCOCC(F)(F)C(F)F)c1ccc2oc3ccccc3c2c1 | x | x | x | 2.6 | -0.6
Cc1c(NS(=O)(=O)c2ccc3c(c2)CCN3C(=O)C2CC2)c(=O)n(-c2ccccc2)n1C | x | x | x | 2.8 | 7.8
CCCCNc1cc(C)oc(=O)c1C(C)=O | i | i | i | 11.6 | 9.6
O=C(O)CCc1ccc(-c2ccccc2)n1CC(=O)O | i | i | i | 2.8 | -4.0
O=C1NC(Cc2c[nH]c3ccccc23)C(=O)N1CCOc1ccccc1 (stereo unspecified) | i | i | i | -4.8 | 3.5
O=C(O)c1cc(-c2ccccc2Cl)n[nH]1 | i | i | i | -2.3 | 5.8
O=C(c1ccc(CS(=O)(=O)c2ccc(Br)cc2)o1)N1CCN(C2CCCCC2)CC1 | x | x | x | -4.0 | -0.8
COc1ccc2nc(NC(=O)C3CCCN(S(=O)(=O)c4cccc5nonc45)C3)sc2c1 (stereo unspecified) | x | x | x | 11.4 | 0.1
O=C(NCCN1CCCC1)c1ccc2c(c1)N(Cc1ccc(F)cc1)C(=O)c1ccccc1S2=O (stereo unspecified) | x | x | x | -12.1 | -7.3
Cc1cccc(NC(=O)CN2C(=O)COc3ccc(Cl)cc32)c1C | x | x | x | 0.6 | 2.5
O=c1cc(N2CCN(c3ccccc3)CC2)[nH]c(=O)n1C1CCCCC1 | x | x | x | -6.4 | 0.4
COc1ccc(C)cc1S(=O)(=O)Nc1cccnc1 | i | i | i | 4.8 | -5.3
Cc1noc(/C=C/c2ccco2)c1S(=O)(=O)N1CCC(C(=O)N2c3ccccc3CC2C)CC1 (stereo unspecified) | x | x | x | -3.9 | -4.3
CCN1CCN(C(=O)c2sc3nc(C)nc(N4CCC(C)CC4)c3c2C)CC1 | x | x | x | 2.5 | 1.9

Quoted at random: 4 entries already listed
SMILES | VCAM-1 imaging | VCAM-1 augmentation | VCAM-1 inhibition | FPRL1 ligand | FPR binder
Cc1noc(/C=C/c2ccco2)c1S(=O)(=O)N1CCC(C(=O)N2c3ccccc3CC2C)CC1 (stereo unspecified) | x | x | x | -3.9 | -4.3
COc1ccc(C)cc1S(=O)(=O)Nc1cccnc1 | i | i | i | 4.8 | -5.3
O=c1cc(N2CCN(c3ccccc3)CC2)[nH]c(=O)n1C1CCCCC1 | x | x | x | -6.4 | 0.4
COc1ccc2nc(NC(=O)C3CCCN(S(=O)(=O)c4cccc5nonc45)C3)sc2c1 (stereo unspecified) | x | x | x | 11.4 | 0.1

(next part)
SMILES | VCAM-1 imaging | VCAM-1 augmentation | VCAM-1 inhibition | FPRL1 ligand | FPR binder
Cc1cccn2c(=O)c3cc(C(=O)N4c5ccccc5CC4C)n(C)c3nc12 (stereo unspecified) | x | x | x | -4.4 | 1.4
NC(N)=NC(N)=NCCc1ccccc1 | i | i | i | 0.4 | 5.6
Cc1nc2scc(-c3ccco3)c2c(=O)n1/N=C/N(C)C | i | i | i | -0.2 | 16.8
COCCCN1C(=O)C(=O)/C(=C(/O)c2ccc(OC)cc2)C1c1cccc(OC)c1 (stereo unspecified) | x | x | x | -4.0 | 6.6
CC(=O)C1=C(O)C(=O)N(C2CCCCC2)C1c1ccccc1 (stereo unspecified) | i | i | i | -2.3 | 2.8
CN(C)CCN1C(=O)C(O)=C(C(=O)c2cc3ccccc3o2)C1c1ccc(N(C)C)cc1 (stereo unspecified) | i | i | i | -4.7 | 1.0
CC1CCCCC1NC(=O)C1CCN(S(=O)(=O)N2CCC3(CC2)OCCO3)CC1 (stereo unspecified) | x | x | x | 8.5 | -0.6
CN(CC(=O)NCCc1ccccc1)S(=O)(=O)c1cccs1 | x | x | x | 3.1 | 5.2
CNc1csc(C)c(C)c1=O | x | x | x | -6.3 | 2.1
CSCCC(NC(=O)C1CCC(C)CC1)C(=O)NCCN1CCOCC1 (stereo unspecified) | x | x | x | 0.9 | -4.1
COc1cccc(Cn2nnc3c(=O)[nH]c(C4CCCN(C(=O)c5ccccc5Cl)C4)nc32)c1 (stereo unspecified) | x | x | x | 2.3 | 6.7
O=C(Nc1ccc2c(c1)OCCO2)c1cnc2ccccn2c1=O | x | x | x | -6.1 | 2.2
CC(=O)NCC(=O)N(c1ccccc1)C1(C(=O)NC2CCCCC2)CCCCC1 | x | x | x | 2.7 | 5.7
CN(C(=O)c1ccc2c(=O)n3c(nc2c1)CCCCC3)c1ccccc1 | i | i | i | -1.7 | 1.7
CCCCNC(=O)C1c2cc(OC)c(OC)cc2C(=O)N(C)C1c1ccc(OC)cc1 (stereo unspecified) | x | x | x | 12.5 | 1.2
Cc1cccc(NC(=O)C2CCCN(C(=O)Nc3ccccc3)C2)c1C (stereo unspecified) | i | i | i | 13.5 | 1.7
CCc1ccc(-c2nc(CN3CCCC(C(=O)NCCc4ccc(OC)c(OC)c4)C3)c(C)o2)cc1 (stereo unspecified) | x | x | x | -1.9 | 4.6
COc1ccc(NC(=O)CSc2nc3c(c(=O)[nH]2)CCC3)cc1OC | x | x | x | -5.0 | 7.6
CC(=O)c1cccc(NC(=O)c2ccc(NS(C)(=O)=O)cc2)c1 | i | i | i | 1.8 | -4.4
CCOc1cccc2cc(-c3nnc(NCc4ccco4)s3)c(=O)oc12 | x | x | x | 3.6 | 13.9
O=C(Cn1cccc1)N1CCN(C(c2ccccc2)c2ccccc2)CC1 | i | i | i | -3.4 | 8.2
CC(C)OCCCN1C(=O)c2ccccc2C1C(=O)NC1CCCCC1 (stereo unspecified) | x | x | x | 3.4 | 22.5
O=C(O)c1cccc(N2C(=O)CSC2c2c(F)cccc2Cl)c1 (stereo unspecified) | x | x | x | -11.4 | -1.1
CS(=O)(=O)NCCSCc1c(F)cccc1Cl | i | i | i | 0.3 | -2.2
O=C(CCCCCn1c(=O)[nH]c2ccsc2c1=O)N1CCN(C2CCCCC2)CC1 | x | x | x | -3.0 | -0.8
Cc1ccc2oc(=O)n(CC(=O)O)c2c1 | x | x | x | 0.7 | -2.9
CCSc1nc2nc(C)cc(C)n2n1 | x | x | x | 0.9 | 0.6
Cc1ccc(-n2nnc3c(=O)n(CC(=O)NCC4CCCO4)cnc32)cc1 (stereo unspecified) | x | x | x | 6.3 | -1.1
O=C(COC(=O)CSc1nnc(-c2ccc(Cl)cc2)o1)NCc1ccc2c(c1)OCO2 | i | i | i | 0.7 | -2.7
CCn1cc(C(=O)N=c2sc3ccccc3n2C)c(=O)c2ccc(C)nc21 | i | i | i | -7.8 | -0.6
COc1ccc(CCNC(=O)c2cc3ccccn3n2)c(OC)c1OC | x | x | x | -4.3 | 3.9
NC(=O)c1cc2ccc(O)cc2oc1=NCc1ccccc1 | x | x | x | 5.3 | 5.2
O=C(NCc1ccc(F)cc1)C1CCN(S(=O)(=O)N2CCC3(CC2)OCCO3)CC1 | x | x | x | -0.5 | -3.4
CCN1CCN(CCNC(=O)c2ccc(CS(=O)(=O)c3ccccc3C)o2)CC1 | x | x | x | -0.7 | -6.5
O=C(NCC1CCCO1)C1CCC(CNS(=O)(=O)c2ccccc2)CC1 (stereo unspecified) | i | i | i | 0.6 | -0.2
O=c1cc(-c2ccccc2)[nH]c2ccccc12 | x | x | x | 3.5 | 1.3
COC(=O)C1Cc2c([nH]c3ccccc23)CN1 (stereo unspecified) | x | x | x | -7.1 | -8.3
COc1cc(C2=NOC(C(=O)N3CCCCCC3)C2)cc(OC)c1OC (stereo unspecified) | x | x | x | -2.8 | -5.4
c1ccc(COc2nsnc2N2CCOCC2)cc1 | x | x | x | 0.5 | -1.9
COC(=O)c1oc2ccc(Br)cc2c1NC(=O)CCCN1C(=O)c2ccccc2C1=O | x | x | x | -2.3 | 0.8
COc1cccc(Cn2nnc(C(=O)Nc3ccc(C)cc3)c2N)c1 | x | x | x | 11.1 | 2.4
COc1ccc(CNc2ccc(C(=O)O)cc2)cc1 | i | i | i | -2.0 | 0.5
O=c1c2cc3c(cc2[nH]c(=S)n1Cc1ccco1)OCO3 | x | x | x | -3.1 | 1.2
CSC1=NCCN1C(=O)COc1ccc2ccccc2c1 | x | x | x | 0.7 | 3.0

An excerpt. The share of hits here may be higher or lower than overall.
